Screening data: PubChem, several laboratories
WNV NS2B-NS3 inh: inhibitors of WNV NS2B-NS3 protease, primary screen, biochemical, fluorogenic substrate; AID 577, 2007; fluorogenic substrate Ex360/Em465; active compounds read low; z-score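 (tested at a level between 10 and 100 µM)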; 65,000 compounds, 0.18% hits; Genome polyprotein (West Nile virus), P06935;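 active = z-score at -3 or under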;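 also: score is relative to mean and spread of the compound wells of a plate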
Target sequence (P06935 1371-1501 limits assumed): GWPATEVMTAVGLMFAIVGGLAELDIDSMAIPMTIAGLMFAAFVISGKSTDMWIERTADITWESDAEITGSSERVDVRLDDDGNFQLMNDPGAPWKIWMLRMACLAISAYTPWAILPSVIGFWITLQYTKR
Target sequence (P06935 1502-1679 limits assumed): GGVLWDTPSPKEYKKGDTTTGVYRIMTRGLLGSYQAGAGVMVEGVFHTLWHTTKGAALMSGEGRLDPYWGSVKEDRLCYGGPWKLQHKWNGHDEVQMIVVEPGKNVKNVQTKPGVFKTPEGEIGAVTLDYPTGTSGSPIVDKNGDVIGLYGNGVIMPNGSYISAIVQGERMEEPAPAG
MT1-MMP promoter: inhibitors of MT1-MMP promoter transcription, cell-based, luciferase reporter, luminescence (AID 618). MT1-MMP promoter luciferase reporter cells, luminescence. calls from a first round at 10 µM; hits with a dose series show EC50 in µM. 87,000 compounds, 0.62% hits;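 active = over half of the reporter light lost at 10 µM or EC50 under 50 µM; inactive = the rest and hits that failed the dose series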;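 also: actives suppress MT1-MMP promoter-driven transcription so potencies describe inhibitors; HT1080 fibrosarcoma cells; overnight exposure; toxic or luciferase-blocking compounds were not removed from the actives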
Hsc70: Hsc70 inhibitors, probe displacement, primary screen, biochemical, fluorescence polarization (AID 568). Hsc70 fluorescence polarization, probe displacement; higher % means a stronger effect; strong numbers were not always called active. displacement, % at 20 µM, or IC50 in µM where a hit was titrated. 83,000 tested, under 10 active;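 active = displacement above 50% without optical interference and an IC50 on retest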;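 also: ATPase domain with a fluorescein-tagged ATP probe; 0% = vehicle and 100% = excess ADP; read after one hour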
An asterisk follows results filed as active; i = inactive; / = not tested or not shown; + = active, no number.

SMILES	WNV NS2B-NS3 inh	MT1-MMP promoter	Hsc70
Cc1ccc2c(c1)CC1(CN2C)C(=O)NC(=O)N(c2ccccc2C)C1=O (stereo not drawn)	-0.56	i	8.0%
CC1(O)C[C@]2(C)N(O)C3CCCC[C@@H]3N2O1 (stereo partly drawn)	1.6	i	1.5%
CN(C)C(=O)CSc1nnc([C@@H](N)Cc2ccccc2)o1	0.26	i	1.6%
CCCn1ncc(C(=O)O)c1C	-0.19	i	1.9%
O=C(O)C1(c2ccc(Cl)cc2)CCC1	-0.56	i	0.2%
C#CCN1C(=O)C2(C(C#N)=C(N)OC(C)=C2C(=O)OCc2ccccc2)c2ccccc21 (stereo not drawn)	1.3	i	6.6%
COCCn1cc(C(=O)N2CCC3(CC2)OCCO3)c2c3ccccc3n(C)c2c1=O	0.2	i	-4.4%
CCCCCn1c(=O)c(C(=O)NCc2ccncc2)c(O)c2ccccc21	0.51	i	-0.8%
COc1ccc(N2CCN(C(CNC(=O)Oc3ccccc3)c3cccnc3)CC2)cc1 (stereo not drawn)	-7.2*	i	5.0%
CCCCCCN=C(CC)c1c(O)n(CCCC)c(=O)[nH]c1=O	-0.83	i	-4.3%
CCC(=NCc1ccco1)c1c(O)n(Cc2ccccc2)c(=O)[nH]c1=O	0.34	i	2.2%
O=c1c2ccccc2nc(N2CCCC2)n1-c1ccc(Cl)cc1	0.03	i	-5.9%
CCN1CCN(C(=O)COc2ccc(S(=O)(=O)NC(C)C)cc2)CC1	/	i	-1.6%
Cc1cc([P+](=O)O)c(C)n1-c1ccc(Br)cc1	-0.53	i	-5.3%
COCCOC(=O)c1c(N)n(Cc2ccccc2)c2nc3ccccc3nc12	-0.44	i	-3.0%
CCCCn1c(O)c(C(C)=Nc2c(C)n(C)n(-c3ccccc3)c2=O)c(=O)[nH]c1=O	0.74	i	-1.0%
COc1ccc(CN2C(=O)CC(=O)NC2=O)cc1	0.16	i	-11%
COc1ccc(Br)cc1CN1CCN(CCO)CC1	0.09	i	-2.6%
Cc1ccc(NC(=O)CSc2nnc([C@@H](N)Cc3c[nH]c4ccccc34)o2)c(C)c1	1	i	9.5%
CCN(CC)c1ccc(N=Cc2c(O)n(-c3ccccc3C)c(=O)[nH]c2=O)cc1	-0.28	i	-6.8%
CCOC(=O)C1SC2(C(F)F)CC1(O)c1c(c(OC)c3occc3c1OC)O2 (stereo not drawn)	-0.08	i	-6.0%
NCC1(c2ccc3c(c2)OCCO3)CCCC1	0.21	i	-1.4%
CCOC(=O)c1c(N)n(Cc2ccccc2)c2nc3ccccc3nc12	1.2	i	-1.9%
O=S(=O)(c1ccc(Cl)cc1)N1CN2CCN(C2)C1	-4.8*	i	-0.1%
CC1CN=C(NCc2ccncc2)S1 (stereo not drawn)	-1.7	i	-0.3%

Quoted from the listing:
CCCCCCN=C(CC)c1c(O)n(CCCC)c(=O)[nH]c1=O @ Hsc70: -4.3%
NCC1(c2ccc3c(c2)OCCO3)CCCC1 @ Hsc70: -1.4%

Remaining list, next part:
SMILES	WNV NS2B-NS3 inh	MT1-MMP promoter	Hsc70
CC(=NCc1ccco1)c1c(O)n(C)c(=O)n(C)c1=O	0.26	i	4.0%
CN(C)C(=O)Nc1cccc(OC(=O)N(C)C)c1	1.9	i	-0.4%
CCC(=NCCC1=CCCCC1)c1c(O)[nH]c(=O)[nH]c1=O	-0.95	i	-8.6%
O=C(COc1ccccc1)N1CCN(C/C=C/c2ccccc2)CC1	0.04	i	3.6%
O=c1[nH]c(=O)n(CCc2ccccc2)c(O)c1C=NCCCn1ccnc1	0.15	i	-5.6%
O=C(O)C1CN2CCC1CC2 (stereo not drawn)	-0.11	i	1.6%
CCN(CC)CCCOC(=O)C(OC(C)C)(c1ccccc1)c1ccccc1	/	i	0.1%
C(=NC12CN3CN(CN(C3)C1)C2)c1cccnc1	0.57	i	3.1%
COc1ccc(-n2c(O)c(C(C)=NC3CC3)c(=O)[nH]c2=O)cc1	0.32	i	3.2%
Cn1cccc1CNCCc1ccc(F)cc1	/	i	4.2%
CCOC(=O)c1c(NC(=O)C(c2ccccc2)c2ccccc2)sc2c1C1CCN2CC1	/	i	-1.6%
O=C1C2CCCN2C(c2ccccc2)N1c1ccccn1 (stereo not drawn)	-0.14	i	6.8%
O=C1NC(=O)C2(Cc3ccccc3N3CCCC32)C(=O)N1c1ccccc1 (stereo not drawn)	-0.14	i	8.6%
O=C(N/N=C1/CN2CCC1CC2)c1cccc(O)c1	/	i	-0.3%
CCN1CCN(Cc2ccc(OC(F)(F)F)cc2)CC1	0.12	i	9.9%
N=c1c[n+](CC23CC4CC(CC(C4)C2)C3)[n-]o1	-1.4	i	1.0%
CCC(=Nc1ccc(OC)cc1OC)c1c(O)n(C)c(=O)n(C)c1=O	-0.99	i	0.8%
c1ccc2c(c1)[nH]c1cnccc12	0.17	i	1.0%
O=c1cccc2n1CC1CC2CN(Cc2c(Cl)cccc2Cl)C1 (stereo not drawn)	-0.23	i	6.1%
CC(C)(C)c1ccc(S(=O)(=O)N2CC3CC(C2)c2cccc(=O)n2C3)cc1 (stereo not drawn)	/	i	1.3%
Fc1ccc(N2CCN(Cc3ccc4c(c3)OCO4)CC2)cc1	-1.5	i	4.3%
COC(=O)CC1=C(C(=O)OC)C2(C(=O)Nc3c(C)cccc32)C(C#N)=C(N)O1 (stereo not drawn)	-0.99	i	-8.2%
c1cc2n(c1)-c1c(ccc3c1OCO3)CNC2c1ccc2c(c1)OCO2 (stereo not drawn)	0.59	i	-0.3%
Cn1cccc1CNCCc1ccccc1	/	i	-3.0%
NC(=O)Nc1cccc(C(F)(F)F)c1	-0.37	i	-4.7%

More compounds
SMILES	WNV NS2B-NS3 inh	MT1-MMP promoter	Hsc70
COC(=O)c1cncn1C(C)c1ccccc1 (stereo not drawn)	0.32	i	-0.3%
O=C1NC(=O)C2(Cc3ccccc3N3CCCC32)C(=O)N1 (stereo not drawn)	/	i	3.6%
Cc1ccc(S(=O)(=O)N2CN3CCN(C3)C2)cc1	0.37	i	-8.5%
c1ccc(C2CC3CC(c4ccco4)N2O3)cc1 (stereo not drawn)	-1.3	i	0.1%
Cc1cc2c(s1)NC(=O)CN=C2c1cccs1	-0.11	i	-6.0%
CCc1ccccc1NC(=O)CSc1nnc([C@@H](N)Cc2c[nH]c3ccccc23)o1	-0.17	i	1.6%
Cc1ccccc1CS(=O)(=O)Cc1ccc(C(=O)N2CCC3(CC2)OCCO3)o1	1.2	i	8.7%
O=C(CCN1C(=O)COc2ccccc21)N1CCC2(CC1)OCCO2	-0.55	i	2.2%
C=CCC1(CN2CCCCCC2=O)C(=O)NC(=O)NC1=O	-6.5*	i	2.1%
CCCCn1c(O)c(C=NCCN2CCCCC2)c(=O)[nH]c1=O	-0.28	i	-0.1%
O=S(=O)(c1ccccc1)N1CCCCC1c1cccnc1 (stereo not drawn)	/	i	9.7%
CCN(CC)CCCOC(=O)C(OC)(c1ccccc1)c1ccccc1	/	i	-0.5%
Cn1c2ccccc2c2cnn(CC(=O)N3CCC4(CC3)OCCO4)c(=O)c21	/	i	5.1%
C(#CCN1CCOCC1)COCc1ccccc1	0.43	i	1.0%
O=c1[nH]c(CN2CCNCC2)nc2ccccc12	/	i	1.6%
CC(=O)OC1C2CCC1C(N1CCCC1)CC2 (stereo not drawn)	/	i	5.6%
O=C(Cn1ncc2ccsc2c1=O)N1CCC2(CC1)OCCO2	-0.31	i	-5.3%
O=C1C2CCCN2C(c2cccc(Cl)c2)N1c1ccccn1 (stereo not drawn)	0.96	i	1.8%
Fc1ccc(C2=CCN(C(c3cccs3)c3nnnn3CCc3ccccc3)CC2)cc1 (stereo not drawn)	/	i	-3.2%
Cc1nn(Cc2ccccc2)c(C)c1C(=O)OCC(=O)NCc1ccco1	/	i	1.2%
C=CCn1c(O)c(C(C)=NC2CC2)c(=O)[nH]c1=O	1.1	i	-4.0%
COc1ccc(-c2nc(CSCC(=O)N3CCC4(CC3)OCCO4)c(C)o2)cc1OC	0.3	i	6.3%
CCCCn1c(C)c(C(=O)O)c2cc(OC)ccc21	-0.56	i	-3.6%
CCCCC12CNCC(C)(CNC1)C2=O	0.21	i	-8.4%
O=C(Cn1ncc2c3ccccc3n(Cc3ccc(F)cc3)c2c1=O)N1CCC2(CC1)OCCO2	-0.09	i	-5.1%

(further entries)
SMILES	WNV NS2B-NS3 inh	MT1-MMP promoter	Hsc70
CC(C)Oc1ccc(C2C(C#N)=C(N)Oc3c2c(=O)oc2ccccc32)cc1 (stereo not drawn)	/	i	2.5%
CC(N)Cc1c[nH]c2cc3c(cc12)OCCO3 (stereo not drawn)	1.1	i	-14%
Cc1cccc(OC(=O)N2CCOCC2)c1	-1	i	4.3%
OCc1cnc[nH]1	-0.47	i	-0.9%
CCOP(=O)(C#CC(C)(C)C)C(C)(O)c1ccccc1 (stereo not drawn)	-0.05	i	2.0%
CC(C)C1(C)N=C(c2nc3ccccc3cc2C(=O)O)NC1=O (stereo not drawn)	0.02	i	-7.2%
CN1CCN(c2ccc(NC(=O)Oc3ccccc3)cc2)CC1	/	i	-0.4%
CCOC(=O)Cn1cc(C(=O)c2ccccc2F)c2ccccc21	/	i	-0.2%
COC(=O)C(O)(c1cn(C)c2ccccc12)C(F)(F)F (stereo not drawn)	-0.47	i	0.5%
N#Cc1cc2c(nc1SCC(=O)Nc1cc(Cl)ccc1Cl)C1CCN2CC1	/	i	0.3%
CC1CN(C)C(C)(C)CC1(O)c1ccccc1 (stereo not drawn)	/	i	4.2%
Cc1cc(OCC(=O)OC(C)(C)C)c2c3c(c(=O)oc2c1)CCC3	-0.8	i	0.1%
COc1ccccc1N=Cc1c(O)n(C)c(=O)n(C)c1=O	0.84	i	2.6%
Cc1cc(C)n2nc(SC(C)C(=O)N3CCC4(CC3)OCCO4)nc2n1 (stereo not drawn)	0.09	i	4.6%
CN1CCN(Cc2cc(C(C)(C)C)c(O)c(C(C)(C)C)c2)CC1	/	i	-0.3%
O=C(Cn1cnc2ccccc2c1=O)NCC(=O)N1CCC2(CC1)OCCO2	0.29	i	-6.7%
O=C(COc1ccc(Br)cc1)N1CCN(Cc2ccncc2)CC1	0.79	i	-3.4%
OC1(c2cccnc2)CC2CCC(C1)N2Cc1nnnn1Cc1ccccc1 (stereo not drawn)	-0.11	i	2.1%
Cn1c(O)c(/C=N/c2ccccn2)c(=O)n(C)c1=O	0.27	i	14%
O=C(NC[P+](=O)O)OCc1ccccc1	0.46	i	-1.8%
Cc1oc2ccc(OC(=O)N(C)C)cc2c1C(=O)OC(C)C	0.52	i	1.7%
CCOP(=S)(OCC)c1ccc(N(C)C)cc1	0.53	i	-2.3%
O=C(O)CCCc1ccc(N(CCCl)CCCl)cc1	0.15	i	0.1%
CCN1CCN(c2ccc(NC(=O)C(C)C)cc2Cl)CC1	/	i	0.7%
O=c1cc(C2CCNCC2)[nH][nH]1	0.38	i	-0.5%

Further compounds follow:
SMILES	WNV NS2B-NS3 inh	MT1-MMP promoter	Hsc70
CNCC(O)c1cccc(OC(=O)c2ccccc2C)c1 (stereo not drawn)	0.95	i	1.0%
C[C@H]1CCC/C=C/C2C[C@H](O)CC2[C@H](O)/C=C/C(=O)O1 (stereo partly drawn)	-0.65	+	1.0%
COP(=O)(OC)C(O)C(Cl)(Cl)Cl (stereo not drawn)	-3.4*	i	-5.7%
CC(C)Sc1nnc([C@@H](N)Cc2ccccc2)o1	/	i	0.8%
CCSP1(=S)N=C(N2CCOCC2)C(C#N)=C2CCCN21 (stereo not drawn)	0.24	i	3.8%
OC(CNC1CCCCC1)c1ccccc1 (stereo not drawn)	-0.23	i	1.2%
CCOC(=O)CC1=C(C(=O)OCC)C2(C(=O)Nc3ccccc32)C(C#N)=C(N)O1 (stereo not drawn)	-1.8	i	-1.1%
O=c1[nH]c(=S)n(CCC2=CCCCC2)c(O)c1C=NCc1cccnc1	/	i	2.6%
COc1ccc(CC2C(=O)NC(=O)N(c3ccccc3)C2=O)c(OC)c1 (stereo not drawn)	-0.92	i	-2.6%
Cc1cc(OCc2nn[nH]n2)c2c3c(c(=O)oc2c1)CCC3	0.01	i	0.4%
CC(=O)c1c(C)n(CCCOC(C)C)c2ccc(O)cc12	0.12	i	-8.1%
CCOCC(=O)NC1CCSC1=O (stereo not drawn)	0.2	i	-1.1%
COCCCn1c(N)c(C(=O)NCCC(C)C)c2nc3ccccc3nc21	-0.38	i	-2.1%
CCCCn1c(N)c(C(=O)NCc2cccs2)c2nc3ccccc3nc21	/	i	-5.4%
Nc1ccnn1C1CCNCC1	-0.48	i	0.7%
CC(=O)Nc1cc(C(=O)N2CCC3(CC2)OCCO3)ccc1S(=O)(=O)c1ccc(C)cc1	2	i	5.7%
O=C(O)c1cc2ccccc2oc1=O	0.88	i	1.0%
COCCCn1c(N)c(C(=O)OCCOC)c2nc3ccccc3nc21	2.2	i	-4.0%
CC(=O)Nc1cc([As](=O)(O)O)ccc1O	/	i	-2.8%

7 structures already listed, sorted by formula weight, lowest first:
SMILES	WNV NS2B-NS3 inh	MT1-MMP promoter	Hsc70
Nc1ccnn1C1CCNCC1	-0.48	i	0.7%
CCOCC(=O)NC1CCSC1=O (stereo not drawn)	0.2	i	-1.1%
CC(=O)Nc1cc([As](=O)(O)O)ccc1O	/	i	-2.8%
C[C@H]1CCC/C=C/C2C[C@H](O)CC2[C@H](O)/C=C/C(=O)O1 (stereo partly drawn)	-0.65	+	1.0%
CC(=O)c1c(C)n(CCCOC(C)C)c2ccc(O)cc12	0.12	i	-8.1%
COc1ccc(CC2C(=O)NC(=O)N(c3ccccc3)C2=O)c(OC)c1 (stereo not drawn)	-0.92	i	-2.6%
COCCCn1c(N)c(C(=O)NCCC(C)C)c2nc3ccccc3nc21	-0.38	i	-2.1%

An excerpt, so the mix of outcomes need not match the whole.
